Compound activity: PubChem BioAssay, ICCB-Longwood Screening Facility, Harvard Medical School
RVFV N-RNA FP: RVFV nucleocapsid-RNA interaction inhibition | P21700 | AID 651828 | 0.1% of 20,000 active | RVFV N-RNA binding, fluorescence polarization; active compounds read low | % bound, % (no concentration beside the values);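 active = between 0 and 58% in either replicate with normal brightness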;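 also: 100 nL library stock added to about 12 µL; 100% = protein and probe without compound and 0% = probe alone; numbers are from one replicate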
Target sequence (P21700 whole entry, looked up): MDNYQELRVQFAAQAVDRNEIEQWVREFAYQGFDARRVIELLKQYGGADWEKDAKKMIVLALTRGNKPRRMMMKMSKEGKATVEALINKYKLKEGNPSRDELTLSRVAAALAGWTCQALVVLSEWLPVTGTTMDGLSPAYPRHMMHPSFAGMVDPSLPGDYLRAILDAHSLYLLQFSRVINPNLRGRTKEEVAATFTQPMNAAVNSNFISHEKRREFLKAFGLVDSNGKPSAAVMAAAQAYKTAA
* marks the source's active call; other numbers are inactive results; & = joins results of further samples.

SMILES | RVFV N-RNA FP
O=C(O)CCCN1C(=O)/C(=C2\SC(=S)N(CCCC(=O)O)C2=O)SC1=S | 87.6
CCOc1cc(S(=O)(=O)n2ccnc2)ccc1Br | 95.7
c1cnc2sc3c(N4CCOCC4)ncnc3c2c1 | 97.3
CCc1ccc(N2C(=O)CNC2=S)cc1 | 99.7
NC(=O)CSc1ccc(-c2ccc3c(c2)OCO3)nn1 | 92.7
Nc1ncn([C@@H]2O[C@H](CO)[C@@H](O)[C@H]2O)c(=O)n1 | 94.4&95.6
COC(=O)COc1ccc(S(=O)(=O)Nc2ccc(C(F)(F)F)cc2)cc1 | 97.3
CCCC(C)(COC(N)=O)COC(=O)NC(C)C (configuration not stated) | 98.2
N#CCCn1[nH]c(=O)ccc1=O | 95.5
CCOc1ccccc1NC(=O)COC | 95.2
NC(=O)CCSCc1ccc(Cl)c(Cl)c1 | 98.6
CCOc1cc(C(F)(F)F)cnc1/C(N)=N/OC(=O)NC | 92.3
Cc1ccc(CSc2ncnc3c2oc2ccccc23)cc1 | 96.8
CC(Oc1ccccc1)C(=O)NC1CCCCC1 (configuration not stated) | 104.8
N#CC(C#N)=NNc1ccc(-n2ccc(C(F)(F)F)n2)cc1 | 92.0
Cc1nn(C)c(=O)c2ccccc12 | 91.5
O=C(CSc1ccccc1)NCc1ccccc1 | 88.4
Cn1c(=O)c2c(nc(NC3CCCC3)n2C)n(C)c1=O | 91.8
Cn1c(C(F)(F)F)nnc1S(=O)(=O)Cc1ccc(-c2csnn2)cc1 | 90.3
Cc1ccc(NC(=O)C/C(N)=N/O)cc1C | 95.9
CC(=O)N[C@@H](Cc1c[nH]c2ccccc12)C(=O)OCc1cc(C(F)(F)F)cc(C(F)(F)F)c1 | 91.5
CSc1nnc(C)c(=O)n1COC(=O)/C=C/c1ccc2c(c1)OCO2 | 83.8
N#CC(C#N)=CNc1ccccn1 | 94.8
Oc1ccccc1-c1nnc(-c2ccccc2)o1 | 96.0
O=C(NCCc1cnc[nH]1)NC12CC3CC(CC(C3)C1)C2 | 92.9
Cc1cc(SCC(=O)N2CCN(C)CC2)nc(SCC(=O)N2CCN(C)CC2)n1 | 100.8
CSc1nc(NC(=O)NS(=O)(=O)c2ccccc2Cl)nc(C2CC2)n1 | 96.2
Cc1ccc2oc(=O)cc(CN3CC(C)OC(C)C3)c2c1 (configuration not stated) | 88.8
COc1cc(/C=C2\SC(=O)NC2=S)ccc1O | 86.9
O=C(NN1C(=O)C2C3C=CC(C3)C2C1=O)C1CC=CCC1 (configuration not stated) | 104.8
Cc1onc(-c2c(Cl)cccc2Cl)c1NC(=O)O/N=C/c1ccccc1 | 98.0
CC(=O)Oc1ccccc1C(=O)N(C(C)C)C(C)C | 82.8
CCCC(=O)NC1=C(C#N)C2(CCCC2)Cc2ccccc21 | 93.9
CCC(CC)c1nc(C(N)=O)c2[nH]c(=O)n(-c3ccc(OC)c(OC)c3)c2n1 | 98.8
COc1cc(Cn2cnc3c(cnn3CCO)c2=O)cc(OC)c1 | 104.6
CCc1ccc(NC2CC(=O)N(c3ccccc3)C2=O)cc1 (configuration not stated) | 97.1
CC(C)C1Cc2c(sc3c2c(=O)n(CCc2ccccc2)c2n[nH]c(=S)n32)CO1 (configuration not stated) | 86.7
CN(C)c1nc(N(C)C)nc(N(C)C#N)n1 | 91.7
Cc1noc(C)c1C(=O)N1CCN(C(=O)c2sc3cc(Cl)ccc3c2Cl)CC1 | 92.9
CN(C)C(=O)c1ccc(-n2cnc3ccccc3c2=O)cc1 | 93.0
CC1=NS(=O)(=O)c2cc(Cl)ccc2N1 | 95.2&97.8&108.1
CC(NC1CC(=O)N(C)C1=O)c1ccccc1 (configuration not stated) | 95.1
O=C(OCc1ccccc1)N1CCc2ccccc21 | 95.3
COc1ccc(CN2C(=O)CNC2=O)cc1 | 89.0
O=c1[nH]c(=O)n([C@H]2C[C@H](O)[C@@H](CO)O2)cc1Br | 89.8
COC(=O)Nc1ccccc1NC(=O)OC | 94.2
CS(=O)(=O)Nn1cnc2ccccc2c1=O | 98.0
O=C1c2ccc(-c3nc4ccccc4c(=O)o3)cc2C(=O)N1c1cccnc1 | 95.8
O=C(/C=C/c1ccco1)NCc1ccccc1 | 96.7
COC(=O)C(CC(=O)c1ccc(Br)cc1)n1nc(C)cc1C (configuration not stated) | 96.9

Further records:
SMILES | RVFV N-RNA FP
O=C(O)c1nccnc1-c1nc2ccccc2c(=O)[nH]1 | 100.5
CN(C(=O)c1ccco1)c1ccccc1C(=O)NCCc1ccccc1 | 96.9
Brc1cccc(OCCSc2ncccn2)c1 | 95.9
Cc1cc(C(=O)Oc2cccc(Cl)c2)n(C(C)(C)C)n1 | 105.5
O=C(O)c1ccccc1S(=O)(=O)c1ccccc1C(=O)O | 95.8
O=C(c1cccc(F)c1)N1CCOCC1 | 97.7
CC(C)CN(CC(C)C)CC(O)Cn1cnc2c1c(=O)n(C)c(=O)n2C (configuration not stated) | 82.7
COc1cc2c(cc1OC)-c1cc(=Nc3c(C)cc(C)cc3C)n(C)c(=O)n1CC2 | 94.0&93.3
CC1=CCC2C(=O)N(CCc3c[nH]c4ccccc34)C(=O)C2C1 (configuration not stated) | 100.0
O=S(=O)(NN1CCOCC1)c1ccc(Br)cc1 | 96.2
CSc1nnc(C(C)(C)C)c(=O)n1N | 96.8
CN1CCC(N(C)C(=O)Nc2c[nH]c3ccccc23)CC1 | 96.9
CC(=O)NC12CC3CC(C)(C1)CC(NC(C)=O)(C3)C2 | 93.1
CC(=O)O/N=C(\N)COc1ccc(-c2nnco2)cc1 | 90.3
CC(CN1CCCN(C)CC1)c1ccccc1 (configuration not stated) | 102.9
CCOc1ccc(C(=O)Nc2cc(OC)c(OC)cc2C(=O)OC)cc1 | 91.0
N#Cc1cccc(NC(=O)C(F)(F)F)c1 | 92.9
CCOc1ccc(C(=O)NCCO)cc1 | 99.7
CCc1cc(C(=O)O)c(SSc2sc(CC)cc2C(=O)O)s1 | 92.6
CCC(C)c1ccc(NC(=O)CC(C)C)cc1 (configuration not stated) | 92.0

Random excerpt: six compounds from above
SMILES | RVFV N-RNA FP
CCOc1ccc(C(=O)NCCO)cc1 | 99.7
CC(=O)NC12CC3CC(C)(C1)CC(NC(C)=O)(C3)C2 | 93.1
CCc1cc(C(=O)O)c(SSc2sc(CC)cc2C(=O)O)s1 | 92.6
CCOc1ccc(C(=O)Nc2cc(OC)c(OC)cc2C(=O)OC)cc1 | 91.0
CC(CN1CCCN(C)CC1)c1ccccc1 (configuration not stated) | 102.9
N#Cc1cccc(NC(=O)C(F)(F)F)c1 | 92.9

Continued:
SMILES | RVFV N-RNA FP
COc1ccc(N2CCN(c3c(C(=O)c4ccc(C)cc4)cnc4cc(OC)c(OC)cc34)CC2)cc1 | 89.8
O=C1CC(c2ccccc2)NC(c2ccccc2)C1 (configuration not stated) | 99.6
S=c1ccc2nnc(-c3ccccc3)n2[nH]1 | 88.6
CC(=O)OC[C@H]1O[C@@H](N2CCCCC2)[C@H](OC(C)=O)[C@@H](OC(C)=O)[C@@H]1OC(C)=O | 98.3
C=CCn1cc(/C=C(/C#N)c2ccc(F)cc2)c2ccccc21 | 93.2
Cc1cc(/C(O)=C2\C(=O)C(=O)N(CCN(C)C)C2c2ccncc2)ccc1OCC(C)C (configuration not stated) | 96.3
O=C(NCCc1cn2ccccc2n1)c1cccs1 | 97.8
Cc1cc(/C=N/N2CCN(C)CC2)cc(C)c1O | 98.2
O=C(O)/C=C/c1ccc(O)c(O)c1 | 93.7
ON=Cc1cccn1-c1ccccc1 | 96.7
O=C(NCc1cccnc1)c1cnn2c1NC(c1ccccc1)CC2C(F)(F)F (configuration not stated) | 96.2
Cc1csc2ncnc(N3CCN(S(=O)(=O)c4cccc(C(F)(F)F)c4)CC3)c12 | 94.3
COc1ccc(CSc2nncn2N)cc1 | 105.6
CCOc1ccc(C(=O)N2CCC(C(=O)OC)CC2)cc1 | 99.4
Cn1nnnc1SCc1ccccc1 | 96.6
COc1cccc(C2C(C#N)=C(N)Oc3c2c(=O)n(C)c(=O)n3C)c1 (configuration not stated) | 76.3
COc1ccc(-c2ccc(C#N)c(SCC#N)n2)cc1OC | 92.7
O=C(C1CCCO1)N1CCN(c2ccccn2)CC1 (configuration not stated) | 85.0
N/C(=N\N=C\c1ccccc1)SC1CC(=O)N(c2ccccc2)C1=O (configuration not stated) | 94.3
O=C1C=C(O)c2cccc3cccc1c23 | 45.2*
CC(C)=C1C2C=CC1c1ccccc12 | 95.2
O=C(CSC1=NC=NC2N=CNC12)N1CCN(Cc2ccc3c(c2)OCO3)CC1 (configuration not stated) | 102.5
Oc1ccc2oc3c(c2c1/C=N/n1cnnc1)CCCC3 | 87.6
CN(CCCC(=O)O)c1nc(-c2ccc(F)cc2)cs1 | 94.9
COC(=O)c1ccc(C)c(NS(=O)(=O)c2ccc3c(c2)c(=O)sn3C)c1 | 92.4
O=C(c1ccc(C23CC4CC(CC(C4)C2)C3)o1)N1CCOCC1 | 91.3
FC(F)(F)c1cccc(NN=C2C3CC4CC(C3)CC2C4)n1 | 94.0
COC(=O)c1cc(S(=O)(=O)NCc2csc(-c3cccs3)n2)oc1C | 95.1
CC(=O)OCc1ccc(COC(C)=O)c(OC(C)=O)c1OC(C)=O | 95.3
CCN(C(=O)Nc1cccc(Cl)c1)c1ccccc1 | 90.2
Cn1c(=NC(=O)c2ccc(S(C)(=O)=O)cc2)sc2ccccc21 | 94.1
C=CCN(CC=C)S(=O)(=O)c1ccc(NC(=O)C2CCCCC2C(=O)O)cc1 (configuration not stated) | 98.9
O=C(c1cc2cc(Cl)cc(Cl)c2oc1=O)N1CCCCC1 | 94.5
CC(=O)Nc1ccc(S(=O)(=O)NNC(=S)NCc2ccco2)cc1 | 95.7
CCOC(=O)Cc1csc(CC(N)=O)n1 | 107.7
O=C(/C=C/c1cccs1)Nc1ccccc1 | 95.9
CCOC(Cc1nnc(SCC(=O)c2ccccc2)n1C)OCC | 85.4
Cn1c(=O)[nH]c(=O)c2[nH]c(Br)nc21 | 97.4
O=c1[nH]ccn(-c2cccc(Cl)c2)c1=O | 86.9
CCC(NC(=O)c1ccc(C#CC2(O)CCCCC2)cc1)C(=O)O (configuration not stated) | 98.1
CC(C)N1C(=O)C2C3C=CC(O3)C2C1=O (configuration not stated) | 95.4
CCCN1CCO[C@@H]2c3cc(O)ccc3OC[C@H]21 | 95.2
Nc1ccc(C(=O)Nc2cccc(-c3nc(N4CCOCC4)c4oc5ncccc5c4n3)c2)cn1 | 97.8
CC(CC(=O)NN)C1(O)CCCCC1 (configuration not stated) | 92.2
CCc1ccccc1N(CC(N)=O)S(=O)(=O)c1ccccc1 | 106.0
CC1SC(c2ccc3c(c2)OCO3)N(c2nc3ccccc3s2)C1=O (configuration not stated) | 95.0
CCn1nc(C)cc1/C(N)=N/OC(=O)c1ccc(C(C)(C)C)cc1 | 94.4
O=C(Nc1ccc2c(c1)OCO2)c1cccn(OCc2ccccc2F)c1=O | 106.6
O=C1NC(=O)C(Cc2ccccc2)C(=O)N1 | 107.0
CCNS(=O)(=O)c1ccc(C)cc1 | 89.1

Later entries.
SMILES | RVFV N-RNA FP
Cc1ccc(N2CC(NC(=O)NCCCc3ccccc3)CC2=O)cc1 (configuration not stated) | 93.1
COc1ccc(C(=O)N2CC(=O)Nc3ccccc32)cc1 | 93.1
CC(=NCCN1CCOCC1)C1=C(O)c2ccccc2C1=O | 96.7
O=c1c2ccccc2ncn1CCOc1ccc(CO)cc1 | 93.3
Cc1c(NC(=O)CCCN2C(=O)/C(=C\c3ccco3)SC2=S)c(=O)n(-c2ccccc2)n1C | 98.1
CCOC(=O)C1CCN(S(=O)(=O)Cc2ccc(Cl)cc2)CC1 | 92.8
Cc1ccc(NC(=O)c2c(-n3c(C)cc(C=NO)c3C)sc3c2CCCC3)cc1 | 100.4
C(=C\c1ccccc1)/CSc1nc2ccccc2o1 | 95.3
CCN1C(=O)/C(=C2/SC(c3ccccc3)=C3N=CC(C)=CN32)SC1=S | 93.9
CN1CCC(NC(=S)NC2CC2)CC1 | 89.2

Entries from the list above that have a COOH group, in the order listed:
SMILES | RVFV N-RNA FP
O=C(O)CCCN1C(=O)/C(=C2\SC(=S)N(CCCC(=O)O)C2=O)SC1=S | 87.6
O=C(O)c1nccnc1-c1nc2ccccc2c(=O)[nH]1 | 100.5
O=C(O)c1ccccc1S(=O)(=O)c1ccccc1C(=O)O | 95.8
CCc1cc(C(=O)O)c(SSc2sc(CC)cc2C(=O)O)s1 | 92.6
O=C(O)/C=C/c1ccc(O)c(O)c1 | 93.7
CN(CCCC(=O)O)c1nc(-c2ccc(F)cc2)cs1 | 94.9
C=CCN(CC=C)S(=O)(=O)c1ccc(NC(=O)C2CCCCC2C(=O)O)cc1 (configuration not stated) | 98.9
CCC(NC(=O)c1ccc(C#CC2(O)CCCCC2)cc1)C(=O)O (configuration not stated) | 98.1

New compounds follow:
SMILES | RVFV N-RNA FP
NC(=O)c1cccc2cccc(I)c12 | 97.0
CCOC(=O)c1csc(-c2ccc(-c3csnn3)cc2)n1 | 97.6
CCOC(=O)c1ccc(NC(=S)NCCn2cc(Br)cn2)cc1 | 95.7
N#CCSc1nc2ccccc2c(=O)n1CC1CCCC1 | 100.3
CCOc1ccc(NC(=O)C/C(N)=N/O)cc1 | 91.2
Cc1nc(N)nc2[nH]c(=O)n(-c3ccccc3)c(=O)c12 | 91.2
O=C(O)C1CC1c1ccccc1 (configuration not stated) | 92.8
O=c1c(Br)c(N2CCNCC2)cnn1-c1ccccc1 | 90.4
CN(C)CCC(c1ccc(Cl)cc1)c1ccccn1 (configuration not stated) | 100.6&96.8&88.7
O=C(Cc1csc(NC(=O)Cc2ccccc2)n1)NO | 96.1
CCCc1cc(=O)[nH]c2nnc(SCC(=O)Nc3ccccc3C(F)(F)F)n12 | 97.1
Cn1c(=O)c2c(nc(NNC(=O)C(F)(F)F)n2C)n(C)c1=O | 97.5
O=C(O)Cc1ccccc1 | 96.1
CN(C(=O)Oc1ccc(C(C)(C)C)cc1)c1ccccc1 | 101.6
Cc1onc(-c2c(Cl)cccc2Cl)c1NC(=O)N1CCOCC1 | 107.5
COc1cc2c(cc1OC)C(C)N(C(=O)c1ccc(F)cc1)CC2 (configuration not stated) | 96.9

Some of the compounds tested, so the mix of outcomes need not match the whole.
